gsp ag = qHTS for Agonist of gsp, the Etiologic Mutation Responsible for Fibrous Dysplasia/McCune-Albright Syndrome: qHTS; gsp mutant cells, cAMP HTRF, 30 min; control for the full effect not named in the record; Potency, µM (doses to about 76.9 µM), inactives show at the top dose activation (cAMP increase), hits mostly activators; 0.13% of 340,000 active; AID 624287, 2012; active = well fitted activation curve with a large enough effect; inconclusive = small, poorly fitted or top-dose-only effect, or another doubt; inactive = no such curve, though single readings can be large or run the other way; cell line not stated here;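 further: phosphodiesterase inhibitor Ro 20-1724 added with compounds to block cAMP breakdown; potency means the concentration at half of the fitted maximal effect; nearly all actives have a fitted effect of over 60% in size; about a fifth of the inactives were tested at one dose only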
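Cells in DMEM/10% FBS with G418 were pretreated with compounds in DMSO plus […] (300 uM stock) for 30 min at 37C. cAMP was measured by HTRF (cAMP-d2 plus anti-cAMP antibody-K) after 30 min at room temperature.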
Sfp PPTase inh = qHTS Assay for Inhibitors of Bacillus subtilis Sfp phosphopantetheinyl transferase (PPTase); 4'-phosphopantetheinyl transferase ffp (Bacillus subtilis), Q9F4F7; Biochemical Sfp PPTase activity, qHTS; Potency, µM, for inactives: max response, negative = inhibition, actives largely listed as inhibitors; 3.5% of 310,000 active; AID 1490, 2009; active means well fitted inhibition curve with a large enough effect; inconclusive means small, poorly fitted or top-dose-only effect, or another doubt; inactive means no such curve, though single readings can be large or run the other way;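 further: the enzyme is Sfp with the accession as filed and its product quenches rhodamine fluorescence; potency means the concentration at half of the fitted maximal effect; 0% = enzyme reaction without inhibitor and -100% = no enzyme wells; top concentration of the series not given in the record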
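After 15 min at room temperature with compound, 15 nM Sfp received 5 uM rhodamine-CoA plus 12.5 uM BHQ-2-ybbR (50 mM Hepes pH 7.6, 10 mM MgCl2). Rate came from the fluorescence difference over 30 min, ex 525/em 598 nm.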
TRPV1 PAM = HTS Assay for Compounds that Act as Potentiators of the Vanilloid Receptor 1; Transient receptor potential cation channel subfamily V member 1 (Homo sapiens), Q8NER1; TRPV1-expressing cells, Fluo-8 calcium influx, capsaicin EC20 potentiation; host cell line not named in the record; control for the full effect not named in the record; potentiation, % at 8.33 µM; 0.02% of 320,000 active; AID 540277, 2011; active means potentiation above 80%; inconclusive means 30% to 80%; inactive means below 30%; further: 0% is about no effect
Target sequence (Q8NER1 whole entry, looked up): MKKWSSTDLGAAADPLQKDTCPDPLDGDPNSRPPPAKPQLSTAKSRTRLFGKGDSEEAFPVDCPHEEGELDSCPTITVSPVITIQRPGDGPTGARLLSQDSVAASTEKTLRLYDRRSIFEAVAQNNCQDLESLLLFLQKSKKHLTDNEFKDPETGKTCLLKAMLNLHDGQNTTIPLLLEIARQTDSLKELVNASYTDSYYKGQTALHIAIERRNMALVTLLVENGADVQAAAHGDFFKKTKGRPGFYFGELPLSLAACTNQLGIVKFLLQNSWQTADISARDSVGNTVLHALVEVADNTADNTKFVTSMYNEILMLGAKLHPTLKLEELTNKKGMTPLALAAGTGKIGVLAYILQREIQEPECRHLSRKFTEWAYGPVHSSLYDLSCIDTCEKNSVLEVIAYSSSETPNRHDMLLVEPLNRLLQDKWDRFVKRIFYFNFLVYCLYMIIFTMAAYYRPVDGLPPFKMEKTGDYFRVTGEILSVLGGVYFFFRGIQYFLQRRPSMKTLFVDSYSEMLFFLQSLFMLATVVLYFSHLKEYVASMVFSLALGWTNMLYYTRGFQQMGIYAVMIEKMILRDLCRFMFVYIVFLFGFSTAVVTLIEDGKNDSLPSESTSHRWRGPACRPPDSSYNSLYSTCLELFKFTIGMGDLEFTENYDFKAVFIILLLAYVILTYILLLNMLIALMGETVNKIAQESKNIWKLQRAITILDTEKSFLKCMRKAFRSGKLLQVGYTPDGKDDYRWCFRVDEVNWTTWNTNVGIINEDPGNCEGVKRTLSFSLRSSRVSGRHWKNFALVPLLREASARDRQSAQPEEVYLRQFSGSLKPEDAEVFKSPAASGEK
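Fluo-8 calcium influx in TRPV1-expressing cells, kinetic read (ex 480/em 520 nm). Compound added and read 3 min for agonist activity, followed by capsaicin at EC20 final and 2 min further read for enhancement.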
gsp antagonist = qHTS for Antagonists of gsp, the Etiologic Mutation Responsible for Fibrous Dysplasia/McCune-Albright Syndrome: qHTS | Potency, µM (highest dose often 76.9 µM), for the others: at the top dose activity change, negative = inhibition, actives largely listed as inhibitors | 0.4% of 340,000 active | gsp-mutant cells, cAMP HTRF, 30 min; control for the full effect not named in the record; active = falling curve of any shape with a large fitted effect; inconclusive = falling curve, mostly with a smaller effect; inactive = flat or rising curve; cell line not stated here;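 further: intracellular cAMP measured with PDE inhibitor Ro 20-1724 present during compound exposure; potency means the concentration at half of the fitted maximal effect; on the % scale 0 is the no-effect control and ±100 the full control effect; nearly all actives have a fitted effect of over 65% in size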
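Measurement of cellular cAMP by homogeneous time-resolved fluorescence following a 30 min compound exposure at 37C. The PDE inhibitor […] was present throughout; the assay buffer was DPBS with 0.05% BSA and 0.005% Tween 20.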
Menin MLL FP FL = qHTS Assay for Inhibitors Targeting the Menin-MLL Interaction in MLL Related Leukemias: Competition With Fluorescein Labeled MLL-derived Peptide | Fluorescence polarization, fluorescein-MLL peptide displacement from menin | FP activity change, % at 61.4 µM | 290,000 tested, under 10 active; inconclusive = falling polarisation curve, or a change in total fluorescence; inactive = total fluorescence flat and polarisation flat or rising; no compound was filed as active; the % refers to the polarisation; negative = inhibition;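 further: % of control where 0% means no effect; inhibitors lower the polarisation; unlabelled MLL peptide was the positive control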
TRPML1 blocker = qHTS for Inhibitors of the Human Mucolipin Transient Receptor Potential 1 (TRPML1) | TRPML1-inducible cells, Ca2+ dye fluorescence, FDSS; active compounds read low; inhibition of EC80 agonist-evoked calcium signal | Mucolipin-1 (Homo sapiens), Q9GZU1 | 0.02% of 390,000 active | activity change, negative = inhibition, % (concentration not given with the values); in the data active means activity change below about -50%; inconclusive means about -30% to -50%; inactive means above about -30%;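 further: stimulus is agonist 54-4 at its EC80 concentration; on the % scale 0 is the no-effect control and ±100 the full control effect; the text of the record puts the active cut at -80%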
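Calcium fluorescence in TRPML1-DL cells induced overnight with Tet: a 110 s read after compound pin addition, then a 110 s antagonist read after challenge with 54-4 at 4 uM final (EC80).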
ClpP mod = qHTS Assay for Activators of ClpP; Potency, µM (top dose mostly 57.5 µM), inactives show top-dose activity change, negative = active; ATP-dependent Clp protease proteolytic subunit (Bacillus subtilis (strain 168)), P80244; AID 651965, 2013; purified B. subtilis ClpP, FRET peptide cleavage, 20 min; 1.9% of 340,000 active; active = well fitted falling curve with a large enough effect; inconclusive = small, poorly fitted or top-dose-only effect; inactive = no such curve, though single readings can be large or run the other way; further: potency means the concentration at half of the fitted maximal effect; the source files actives as falling curves though it sought activators and does not explain the sign; nearly all actives have a fitted effect of over 65% in size; many hits overshoot -100%
Target sequence (P80244 whole entry, looked up): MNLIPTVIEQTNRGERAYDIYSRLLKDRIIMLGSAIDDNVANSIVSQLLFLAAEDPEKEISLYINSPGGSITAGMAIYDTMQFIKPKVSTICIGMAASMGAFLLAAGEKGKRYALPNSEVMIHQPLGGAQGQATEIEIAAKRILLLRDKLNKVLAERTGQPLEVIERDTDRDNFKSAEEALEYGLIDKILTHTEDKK
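ClpP 10 microg/mL final, pH 8 Tris/KCl buffer with BSA, glycerol, Tween-20; compound pinned in; FRET-FV substrate; RT 20 min; Ex320/Em430; ΔFRET vs ADEP 5.8 microM, DMSO, no enzyme.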
* = called active by the depositor; [ ] = dose if it differs, or a comment.

`CC1CN(C(=O)c2cc(S(=O)(=O)N3CCCC3)c(Cl)cc2Cl)CC(C)O1` (stereo not given) gave gsp ag -26%, Sfp PPTase inh -8%, TRPV1 PAM -9, gsp antagonist -14%, Menin MLL FP FL 0.3, TRPML1 blocker 32 and ClpP mod 0.1%.
`CN(CP(=O)(O)C(O)c1ccccc1)S(C)(=O)=O` (stereo not given) gave gsp ag 7%, Sfp PPTase inh -23%, TRPV1 PAM 28, gsp antagonist 3%, Menin MLL FP FL 3.9, TRPML1 blocker -3 and ClpP mod 1.2%.
For CC(C)(C)NC(=O)N1CCN(c2nc3ccc(Cl)cc3s2)CC1 the results were gsp ag inconclusive, Sfp PPTase inh 2%, TRPV1 PAM -1, gsp antagonist inconclusive, Menin MLL FP FL -0.8, TRPML1 blocker 4 and ClpP mod 0.5%.
`CC(C)c1ccc(C(=O)N2CCN(CCO)CC2)cc1` gave gsp ag -22%, Sfp PPTase inh 14%, TRPV1 PAM 2, gsp antagonist 7%, Menin MLL FP FL 1.7, TRPML1 blocker 2 and ClpP mod -0.8%.
For C=CCn1c(-c2cc(-c3ccccc3)sc2N)n[nH]c1=S the results were gsp ag inconclusive, Sfp PPTase inh 79µM*, TRPV1 PAM -5, gsp antagonist -4%, Menin MLL FP FL 0.8 and TRPML1 blocker -21.
`CCOC(=O)N1CCN(C(=O)c2cn(CC(C)C)c(=O)c3c2c2ccccc2n3C)CC1` gave gsp ag 12%, Sfp PPTase inh 6%, TRPV1 PAM -4, gsp antagonist -27%, Menin MLL FP FL -2.7, TRPML1 blocker -14 and ClpP mod 25µM*.
Screening O=C(N/N=C/c1ccc(O)c(O)c1)N/N=C/c1ccc(O)c(O)c1 returned gsp ag 2%, Sfp PPTase inh inconclusive, TRPV1 PAM -2, gsp antagonist -17%, Menin MLL FP FL 2.7 and TRPML1 blocker 4.
`COCCN(CC1CCCN(C2Cc3ccccc3C2)C1)C(=O)CCC(N)=O` (stereo not given) gave gsp ag 10%, Sfp PPTase inh 11%, TRPV1 PAM -8, gsp antagonist 7%, Menin MLL FP FL -3.1 and TRPML1 blocker 4.
Screening COc1cc(NC(=O)c2ccccn2)cc(OC)c1OC returned gsp ag 22%, Sfp PPTase inh -18%, TRPV1 PAM -10, gsp antagonist -2%, Menin MLL FP FL 0.7, TRPML1 blocker -9 and ClpP mod -0.6%.
`O=C(Nc1ccc(F)cc1)c1csc(Cc2ccccc2)n1` gave gsp ag -7%, Sfp PPTase inh -7%, TRPV1 PAM 13, gsp antagonist 5%, Menin MLL FP FL -4.1, TRPML1 blocker 39 and ClpP mod 0.8%.
Screening CNS(=O)(=O)c1cn(CC(=O)NCc2cccc(OC)c2)cc1S(=O)(=O)NC returned gsp ag -29%, Sfp PPTase inh -4%, TRPV1 PAM -4, gsp antagonist -2%, Menin MLL FP FL -8.0 and TRPML1 blocker -1.
Screening O=[N+]([O-])c1ccc(Cl)c(S(=O)(=O)Nc2ccc(-c3ccc(N4CCOCC4)nn3)cc2)c1 returned gsp ag 2%, TRPV1 PAM -13, gsp antagonist inconclusive, TRPML1 blocker -5 and ClpP mod 0.9%.
`COc1ccc(NC(=S)NNC(=O)c2cccs2)cc1` gave gsp ag -3%, Sfp PPTase inh 23%, TRPV1 PAM 10, gsp antagonist 6%, Menin MLL FP FL 4.1, TRPML1 blocker 32 and ClpP mod 7.3%.
`Cc1c(C)n(CCCN(C)C)c2ncnc(Nc3ccccc3)c12` gave gsp ag -2%, Sfp PPTase inh 7%, TRPV1 PAM -13, gsp antagonist -7%, Menin MLL FP FL 8.3 and ClpP mod -13%.
CS(=O)(=O)N(CC(=O)N/N=C/c1cc2c(cc1Br)OCO2)c1ccccc1Br was read as gsp ag -9%, Sfp PPTase inh 6%, TRPV1 PAM -21, gsp antagonist inconclusive, Menin MLL FP FL -3.4, TRPML1 blocker -13 and ClpP mod inconclusive.
`O=C(NCc1ccccc1)C1=C[C@H](C2CC2)C[C@H](OCc2ccc(CO)cc2)O1` gave gsp ag 12%, Sfp PPTase inh 2%, TRPV1 PAM -5, gsp antagonist -5%, Menin MLL FP FL -4.8, TRPML1 blocker 5 and ClpP mod -1.9%.
Screening O=C(CN1CCC(C(=O)c2ccc(Cl)cc2)CC1)Nc1ccc2c(c1)OCCO2 returned gsp ag 30%, Sfp PPTase inh -8%, TRPV1 PAM 3, gsp antagonist -29%, Menin MLL FP FL 0.7, TRPML1 blocker -9 and ClpP mod -1.3%.
`Cc1cc(C)cc(OCC(=O)Nc2ccc(N3CCCCC3)cc2)c1` gave gsp ag -7%, TRPV1 PAM -5, gsp antagonist 5%, TRPML1 blocker -2 and ClpP mod 1.3%.
CN(C(=O)COc1ncnc2ccccc12)C1CCCCC1 was read as gsp ag -5%[15.4 µM], gsp antagonist 3%, TRPML1 blocker 11 and ClpP mod 22µM*.
For O=C(CNc1ccc(Br)cc1)c1ccc(O)cc1 the results were gsp ag 2%[15.4 µM], Sfp PPTase inh 40µM*, TRPV1 PAM 2, gsp antagonist 0%, Menin MLL FP FL -7.9 and TRPML1 blocker 42.

Reprinted from the part before: two compounds, followed by the next part.
CN(C(=O)COc1ncnc2ccccc12)C1CCCCC1 was read as gsp ag -5%[15.4 µM], gsp antagonist 3%, TRPML1 blocker 11 and ClpP mod 22µM*.
For O=C(CNc1ccc(Br)cc1)c1ccc(O)cc1 the results were gsp ag 2%[15.4 µM], Sfp PPTase inh 40µM*, TRPV1 PAM 2, gsp antagonist 0%, Menin MLL FP FL -7.9 and TRPML1 blocker 42.
`CCc1c(C(=O)N/N=C/c2ccsc2)csc1C` gave gsp ag inconclusive, Sfp PPTase inh 1%, TRPV1 PAM -5, gsp antagonist -6%, Menin MLL FP FL -2.0, TRPML1 blocker 8 and ClpP mod -4.1%.
Screening COc1ccc(N2CC(NS(=O)(=O)c3cccnc3)CC2=O)cc1 (stereo not given) returned gsp ag 6%[15.4 µM], TRPV1 PAM 2, gsp antagonist 3% and TRPML1 blocker 2.
`Cc1ccc(NC(=O)COC(=O)Cn2ccc(=O)[nH]c2=O)cc1C` gave gsp ag 1%, gsp antagonist -19%, TRPML1 blocker -14 and ClpP mod -22%.
Cc1ccc(-n2nnnc2/C=C\Nc2cc(C)on2)cc1 was read as gsp ag 6%, Sfp PPTase inh 4%, TRPV1 PAM -5, gsp antagonist -13%, Menin MLL FP FL 5.8, TRPML1 blocker 8 and ClpP mod 0.6%.
For Cc1noc(C)c1COc1ccc(C(=O)N2CCCC(C(F)(F)F)C2)cc1 (stereo not given) the results were gsp ag -17%, Sfp PPTase inh 16%, TRPV1 PAM -6, gsp antagonist 11%, TRPML1 blocker -8 and ClpP mod 1.4%.
Screening CCCCc1cc(=O)oc2c(CN(C)C)c(O)ccc12 returned gsp ag 28%, Sfp PPTase inh 15%, TRPV1 PAM 19, gsp antagonist 11%, Menin MLL FP FL -0.7, TRPML1 blocker 16 and ClpP mod -61%.
For C=CCSc1nc(-c2ccccc2)c(C#N)c(=O)[nH]1 the results were gsp ag inconclusive, Sfp PPTase inh 5%, TRPV1 PAM 0, gsp antagonist -15%, Menin MLL FP FL -0.2, TRPML1 blocker 3 and ClpP mod -2.5%.
C/C=C/c1ccc(Oc2nnnn2-c2ccc(C(=O)O)cc2)c(OC)c1 was read as gsp ag -8%, Sfp PPTase inh 11%, TRPV1 PAM 7, gsp antagonist inconclusive, Menin MLL FP FL 3.0, TRPML1 blocker 0 and ClpP mod -2.5%.
Screening OCC[C@@H]1C[C@H](O)[C@@H](O)[C@]2(OCCc3ccccc32)O1 returned Sfp PPTase inh 17%, TRPV1 PAM -17, gsp antagonist 15%, Menin MLL FP FL 3.9, TRPML1 blocker 23 and ClpP mod 1.4%.
`O=C(COc1ccc(Cl)cc1)NCc1ccc(F)cc1` gave gsp ag 3%[15.4 µM], Sfp PPTase inh -3%, TRPV1 PAM -13, gsp antagonist 11%, Menin MLL FP FL -2.5, TRPML1 blocker 44 and ClpP mod 0.7%.
Cc1ccc(NC(=O)CSc2nnnn2-c2ccc3c(c2)OCO3)cc1C was read as gsp ag -4%, Sfp PPTase inh -7%, TRPV1 PAM -12, gsp antagonist 5%, Menin MLL FP FL 2.5, TRPML1 blocker -8 and ClpP mod -1.1%.
Cc1cccn2c(=O)c(/C=C(\C#N)C(=O)NCc3ccco3)c(N3CCC(C(N)=O)CC3)nc12 was read as gsp ag inconclusive, Sfp PPTase inh -9%, TRPV1 PAM 6, gsp antagonist 5%, Menin MLL FP FL 1.5, TRPML1 blocker 9 and ClpP mod inconclusive.
Cc1nc(SCC(=O)NC2(C#N)CCCC2)n(CC(C)C)c1C was read as gsp ag 16%[15.4 µM], TRPV1 PAM -7, gsp antagonist 6% and TRPML1 blocker 19.
COCCNC(=O)c1ccc(Cl)c(S(=O)(=O)Nc2cccc(C)c2C)c1 was read as gsp ag inconclusive, Sfp PPTase inh -2%, TRPV1 PAM 22, gsp antagonist -8%, TRPML1 blocker 3 and ClpP mod -1.9%.
CC(C)(C)OC(=O)N1CCN(C(=O)c2[nH]cnc2C(=O)Nc2cccc(Cl)c2)CC1 was read as gsp ag inconclusive, TRPV1 PAM -7, gsp antagonist -5%, TRPML1 blocker -10 and ClpP mod 6.3%.
Screening C=CCN=C1S/C(=C/c2ccc([N+](=O)[O-])cc2)C(=O)N1CC=C returned gsp ag 1%[15.4 µM], Sfp PPTase inh 14%, TRPV1 PAM -6, gsp antagonist 4%, Menin MLL FP FL 2.8 and TRPML1 blocker 27.
COCCn1c(C)c(C)c(S(=O)(=O)c2ccccc2)c1N was read as gsp ag -6%, Sfp PPTase inh -17%, TRPV1 PAM 7, gsp antagonist 0%, Menin MLL FP FL inconclusive, TRPML1 blocker -7 and ClpP mod -4.5%.

Bioassay records (PubChem BioAssay)
